Env fusion inh = HIV envelope-mediated fusion inhibition; inhibition, % at 12.3 µM; 1.1% of 360,000 active; HeLa-JRFL Env/CEM21 cell fusion, luciferase; AID 651610;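 active = mean replicate inhibition score of at least 50 and every replicate individually at or above 50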;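 note: 0% = plate neutral controls and 100% = maraviroc near 300 nM; one replicate is shown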
CSC inhib = cancer stem cell inhibition. cancer stem cell-like cells viability, luminescence. inhibition, % at 7.5 µM. 1.1% of 300,000 active. AID 2717;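 active = mean at 75% or more and at least half the replicates too; tested in HMLE shEcad cells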;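 note: 0% = median of negative and 100% = median of positive control wells; the first replicate is given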
Rce1 inhib = inhibitors of yeast Ras-converting enzyme; Q03530; calls only; 0.27% of 290,000 active; yeast membranes, quenched prenylated peptide cleavage fluorescence;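 active = fall in fluorescence gain of 50% or more versus controls, with final raw signal at or below 3038400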;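 note: plate controls were neutral control wells for no effect and wells lacking membranes for full effect; tested at 10 µM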
Target sequence (Q03530 whole entry, looked up): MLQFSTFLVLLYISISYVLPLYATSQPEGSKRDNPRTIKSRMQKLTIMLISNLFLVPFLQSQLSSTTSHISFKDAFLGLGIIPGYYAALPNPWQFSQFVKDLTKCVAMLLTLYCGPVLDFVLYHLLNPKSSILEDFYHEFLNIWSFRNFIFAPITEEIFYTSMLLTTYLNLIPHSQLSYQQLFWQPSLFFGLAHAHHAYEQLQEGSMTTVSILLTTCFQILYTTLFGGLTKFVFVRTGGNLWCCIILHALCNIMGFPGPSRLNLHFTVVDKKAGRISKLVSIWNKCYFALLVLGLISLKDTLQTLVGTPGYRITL
UUG fidelity = alters start codon recognition fidelity in yeast; S. cerevisiae UUG-firefly luciferase reporter, luminescence/redox ratio; activity score, % at 18.7 µM; 0.13% of 350,000 active; AID 602363;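 active = replicate mean at a twofold rise or more, about +100% in these data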;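 note: firefly luciferase made from a UUG start codon reports start codon fidelity; reporter light over untreated wells divided by growth signal over untreated wells; some hits fall short of that in this replicate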
MT1-MMP act inh = MT1-MMP (human) activation inhibition. P50281. GFP/RFP ratio change, % at 20 µM. HT1080 RFP-PRO-GFP cells, GFP/RFP ratio fluorescence, overnight; percent of plate control window, DMSO zero. AID 651647. 0.061% of 360,000 active;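 active = GFP/RFP ratio change of at least 30% with cell ATP level not reduced by more than half and red fluorescence within 50% of control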; note: strong numbers were not always called active
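Assay system: HT1080 RFP-PRO-GFP cells. Benchmarks: DMSO vehicle wells and RFP-L50D-GFP reporter cell wells. Times: overnight cell settling, then overnight compound exposure, 37 °C, 5% CO2. Compound: 20 µM single dose, 1% DMSO. Read-out basis: GFP/RFP fluorescence ratio.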
PABP polyA inh = PABP-poly(A) binding inhibition | inhibition, % at 35 µM | PABP-poly(A) RNA binding, fluorescence polarization | 1% of 290,000 active | AID 2014 | P11940;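 active = 50% or more with normal probe brightness, or confirmed in later tests; about a fifth of its hits are not listed in these tables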;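 note: calls also rest on retests at 20 µM and on dose response follow-up; controls were probe without protein and protein plus probe with vehicle; some compounds called inactive have numbers as strong as hits; many hits fall short of the cut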
Target sequence (P11940 whole entry, looked up): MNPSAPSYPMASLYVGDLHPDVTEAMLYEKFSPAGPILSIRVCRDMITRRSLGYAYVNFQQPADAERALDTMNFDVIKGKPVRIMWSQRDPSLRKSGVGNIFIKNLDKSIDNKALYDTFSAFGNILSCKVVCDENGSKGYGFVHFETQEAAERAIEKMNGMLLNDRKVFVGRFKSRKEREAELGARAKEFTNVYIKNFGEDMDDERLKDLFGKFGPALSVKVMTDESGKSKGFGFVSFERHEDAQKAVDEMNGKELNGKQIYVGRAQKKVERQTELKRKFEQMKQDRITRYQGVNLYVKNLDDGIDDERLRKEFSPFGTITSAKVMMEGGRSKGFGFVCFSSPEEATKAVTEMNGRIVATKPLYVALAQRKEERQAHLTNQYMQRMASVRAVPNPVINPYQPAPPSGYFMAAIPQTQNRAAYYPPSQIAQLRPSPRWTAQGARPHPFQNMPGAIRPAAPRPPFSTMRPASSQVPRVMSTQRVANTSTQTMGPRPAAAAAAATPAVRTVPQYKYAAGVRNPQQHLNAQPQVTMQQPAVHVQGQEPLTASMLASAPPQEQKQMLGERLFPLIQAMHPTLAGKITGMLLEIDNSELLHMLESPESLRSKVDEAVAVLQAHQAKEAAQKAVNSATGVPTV
eIF4H FP inh = inhibitors of RNA binding by human eIF4H. Q15056. eIF4H fluorescence polarization binding assay. inhibition, % at 35 µM. 0.94% of 290,000 active;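 active = 50% or more with normal probe brightness, or confirmed in later tests; about a fifth of its hits are not listed in these tables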;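 note: calls also rest on retests at 20 µM and on dose response follow-up; 0% = protein and probe with vehicle and 100% = probe without protein; strong numbers were not always called active; many hits fall short of the cut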
eIF4H FP inh retest = recorded beside eIF4H FP inh, whose call it bears; inhibition, %; compound at 20 µM; confirmation average;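 mean of two retest wells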
PABP polyA inh retest = second read-out of PABP polyA inh, no call of its own (marks repeat the call); inhibition, %; compound at 20 µM; confirmation repeats;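 mean of two retest wells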
MT1-MMP act inh RFP = further read-out of MT1-MMP act inh, marked with its call; RFP signal change, %; measured here: RFP expression control read;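 0 = vehicle wells; hits needed this value within 50% of zero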
Starred values were filed as active, the others as inactive; i = inactive; nt = not tested or not shown. An excerpt; count on the stated rates, not on these rows.

SMILES	Env fusion inh	CSC inhib	Rce1 inhib	UUG fidelity	MT1-MMP act inh	MT1-MMP act inh RFP	PABP polyA inh	eIF4H FP inh	others
COc1cccc(OCC(O)CO)c1 (configuration not stated)	-58	-3	i	-11	3	4	-9	-9
O=C(Nc1ccccc1C(=O)N1CCCCCC1)c1ccccc1	-5	8	i	nt	-1	1	1	9
CC(=O)c1ccc(NC(=O)CCc2nnc3ccc(N4CCCC4)nn23)cc1	-33	8	i	-23	-1	4	3	-3
COc1cccc(Oc2cc(Cl)nc(N)n2)c1	-39	-4	i	-12	0	4	1	-8
COc1cc(/C=C/C(=O)Nc2ccc(N3CCCCC3)c(S(=O)(=O)Nc3ccccc3Cl)c2)cc(OC)c1OC	8	-12	i	nt	-7	-6	-3	1
COC(CNC(=O)CC1C(=O)N(Cc2ccccc2)C(C)c2nc3ccccc3n21)OC (configuration not stated)	0	nt	i	-9	2	3	-10	4
Clc1cccc(Nc2nc(-c3cccnc3)cs2)c1	-85	17	i	-3	2	-16	6	0
Cc1ccc(N(C(=O)c2ccn[nH]2)C(C(=O)NC2CCCC2)c2cccs2)cc1 (configuration not stated)	19	4	i	nt	nt	nt	-15	-12
COc1ccc(/C=C/C(=O)OCC(=O)N2CC(=O)Nc3ccccc32)cc1	-7	3	i	1	-3	1	-1	-9
CC1(C)CC(=O)C2(CC3=C(CC(C)(C)CC3=O)O2)C(=O)C1	nt	-11	i	2	-4	1	53	4	eIF4H FP inh retest=-1;PABP polyA inh retest=6
COc1ccc(Cl)cc1NC(=O)NCC1CCN(Cc2cc(C)ccc2C)CC1	15	7	i	2	3	-4	-13	-14
O=C(OCc1nnc(-c2ccc(Cl)cc2)o1)c1ccc(O)cc1	-15	-13	i	nt	2	2	-3	-8
COc1ccc(-c2ccc(S(=O)(=O)N3CCOCC3)cc2)cc1	nt	-14	i	nt	-1	0	-3	-10
Nc1ccccc1C#Cc1cnccn1	-8	8	i	-10	3	1	nt	nt
CCN(CC(=O)Nc1c(F)cccc1F)C(=O)C1=COCCO1	nt	-12	i	-19	3	2	nt	nt
CN(C(=O)COC(=O)C1CCN(S(=O)(=O)c2c(Cl)cccc2Cl)CC1)c1ccccc1	i	22	i	24	0	-2	nt	nt
Cc1ccccc1C(=O)N1CCC(C(=O)N2CCN(c3ncccn3)CC2)CC1	-6	-7	nt	-5	4	4	nt	nt
N#Cc1c(N)n(-c2ccccc2N)c2nc3ccccc3nc12	-13	5	nt	nt	3	4	6	12
CC(C)N(C(=O)Cn1cnc2cc([N+](=O)[O-])ccc2c1=O)C(C)C	nt	1	i	nt	nt	nt	-10	8
CCN(CC(=O)Nc1c(F)cccc1F)C(=O)c1ccc(OC)c(S(=O)(=O)NC2CCCC2)c1	-14	nt	nt	11	0	3	nt	nt
O=c1c2ccccc2nc2n1C(CSc1ccc(F)cc1)CN2 (configuration not stated)	nt	0	i	-10	2	5	7	2
C=CCOC(=O)C1=C(C)NC(=S)NC1c1cccs1 (configuration not stated)	-2	-12	i	nt	4	-1	11	-8
Cc1ccc(N/C(N)=N/c2nc(CSc3nnc(N)s3)cc(=O)[nH]2)cc1	7	5	i	-25	-5	3	-1	-2
CCOC(=O)c1c(NC(=O)COC(=O)c2cc(OC)c(OC)cc2[N+](=O)[O-])sc(C)c1CC	10	-8	i	-13	-5	-9	6	1
COc1ccc(-n2cc(CNCCc3ncc(C)[nH]3)c(-c3ccccc3Cl)n2)cc1	3	12	i	-16	-2	0	-3	17
COc1ccc(OC)c(/C=N/NC(=O)c2cc[n+](CC(=O)c3ccccc3)cc2)c1	nt	-7	i	-13	2	4	-4	-12
CCCn1c(SCC(=O)NC2CCCCC2)nnc1-c1cccnc1	4	-6	i	1	0	0	-18	-2
CCOC(=O)c1ccc(N=NN(C)C)cc1	-49	5	i	nt	-1	1	-9	-1
O=C(Nc1cccn(Cc2c(Cl)cccc2Cl)c1=O)c1ccc(Cl)cc1	76*	20	i	-15	-13	-29	40	68	eIF4H FP inh retest=30;PABP polyA inh retest=27
COc1ccc2c(C)cc(SCC(=O)Nc3ncc(Cl)cc3Cl)nc2c1	14	nt	i	nt	-3	-4	5	-8
NC(=O)C1CCN(C(=O)/C=C/c2cc(Br)ccc2F)CC1	10	-20	i	-16	0	1	0	24
CC(C)NC(=O)c1onc(CSc2ccccc2)c1C(=O)O	-6	-7	i	-25	0	2	2	2
CCn1ccnc1CN(C)Cc1nc(-c2ccc3c(c2)OCO3)no1	-23	-5	i	nt	0	2	-4	1
CC(NC(=S)NCCCN1CCOCC1)C12CC3CC(CC(C3)C1)C2 (configuration not stated)	5	21	i	nt	-1	-3	-5	-1
O=C(NC(NC(=S)N1CCOCC1)C(Cl)(Cl)Cl)c1ccc(Cl)cc1 (configuration not stated)	38	13	i	-18	-6	-4	9	-11
CSc1nnc(-c2cccc(NC(=O)c3ccccc3)c2)n1C	1	-8	i	-14	-1	2	26	-9

A draw from above in order of number of heavy atoms, low to high:
SMILES	Env fusion inh	CSC inhib	Rce1 inhib	UUG fidelity	MT1-MMP act inh	MT1-MMP act inh RFP	PABP polyA inh	eIF4H FP inh	others
CC(C)NC(=O)c1onc(CSc2ccccc2)c1C(=O)O	-6	-7	i	-25	0	2	2	2
O=C(NC(NC(=S)N1CCOCC1)C(Cl)(Cl)Cl)c1ccc(Cl)cc1 (configuration not stated)	38	13	i	-18	-6	-4	9	-11
COc1ccc(-n2cc(CNCCc3ncc(C)[nH]3)c(-c3ccccc3Cl)n2)cc1	3	12	i	-16	-2	0	-3	17

Additional records follow:
SMILES	Env fusion inh	CSC inhib	Rce1 inhib	UUG fidelity	MT1-MMP act inh	MT1-MMP act inh RFP	PABP polyA inh	eIF4H FP inh	others
O=[N+]([O-])c1ccccc1N/N=C\c1ccccc1Cl	nt	-9	i	-4	5	2	8	4
CC(=O)Nc1ccc(NC(=O)C(C)OC(=O)c2cccc(S(=O)(=O)N3CCCCCC3)c2)cc1 (configuration not stated)	-9	nt	i	-12	-4	-1	nt	nt
CC(C)(C)OC(=O)N1CCC[C@H]1C(=O)N/N=C/c1cccc2cccnc12	0	3	i	nt	-2	7	7	-6
c1ccc(-c2nnc(-c3ccccn3)c(-c3ccccn3)n2)nc1	12	-6	i	-24	0	-3	8	3
O=C(COC(=O)c1cncc(Br)c1)Nc1ccc2c(c1)OCO2	10	nt	i	nt	-2	2	9	27
Cc1nc(-c2ccccc2)cn(O)c1=O	12	nt	i	nt	-4	4	3	3
Cc1ccc(-n2c3c(c(=O)[nH]c2=O)C(C(F)(F)F)(C(F)(F)F)NC(=O)N3)cc1	nt	5	i	-10	-5	-2	4	-4
C=CC[C@@H](CC(=O)NCCO)C(=O)N[C@@H](COC(=O)[C@@H](CC=C)CC(=O)OC(C)(C)C)Cc1ccccc1	-15	-7	nt	-7	0	2	nt	nt
O=C(NC1CCCCC1)C(c1ccccn1)N(C(=O)c1csnn1)C1CCCCC1 (configuration not stated)	52	-14	i	nt	-5	-6	-2	-4
CCOC(=O)N1CCN(CC(=O)Nc2cc(OCC)ccc2OCC)CC1	22	nt	nt	16	-1	-2	-1	10
CN1C(=O)CCS(=O)(=O)C1c1ccc(Cl)c(Cl)c1 (configuration not stated)	-14	nt	nt	-8	3	4	nt	nt
COc1ccc(/C=N/N2CCN(c3ccccc3OC)CC2)cc1Br	-27	4	i	-5	6	4	0	-5
Fc1ccc(C2=NNC(=NCc3ccccc3)SC2)cc1F	24	nt	nt	-17	2	2	-2	-6
CCOc1cc(S(=O)(=O)NCc2cccnc2)c(C)cc1C	20	-5	i	nt	-2	-5	-3	-8
CCOc1ccc(OCC)c(NC(=O)C2CCCN(S(=O)(=O)c3ccc(C)cc3)C2)c1 (configuration not stated)	17	6	i	-22	-1	-10	-6	-20
CCn1c2ccccc2c2cc(/C=N/n3c(C)nnc3C)ccc21	nt	nt	nt	-24	5	0	-3	-2
CCOC(=O)NC(=O)/C(C=Nc1ccc(Cl)c(Cl)c1Cl)=C(\C)O	-1	-6	i	nt	0	2	-5	3
COc1ccc(CNC(=O)COC(=O)C(CCSC)NC(=O)c2ccco2)cc1OC (configuration not stated)	nt	-10	nt	-9	0	1	nt	nt
O=C(CNC(=O)C(c1ccccc1)c1ccccc1)N/N=C/c1ccc(O)c([N+](=O)[O-])c1	nt	5	i	-9	4	-1	11	6
COc1ccc(C2=CC(=O)C[C@H](c3ccc(F)cc3)C2)c(OC)c1	11	20	nt	-4	1	-2	nt	nt
Cc1nc(C(=O)N2CCCC(N3CCN(c4ccc(F)cc4)CC3)C2)cs1 (configuration not stated)	-7	nt	nt	-1	-1	-3	nt	nt
CC(=O)c1ccc(-c2ccc(C(=O)N(C)Cc3nc4ccccc4c(=O)[nH]3)o2)cc1	-3	nt	nt	-6	-4	-16	nt	nt
O=C(NCc1ccccc1Cl)NCc1ccccc1Cl	13	-3	i	nt	-1	2	-3	0
COc1ccc(N2C(=O)N3[C@H](c4ccc(Cl)cc4)[C@@H]4C(=O)N(C5CCCCC5)C(=O)[C@@H]4[C@]3(Cc3ccc(Cl)cc3)C2=O)cc1	88*	7	i	-16	3	-3	1	3
COc1ccc(C2CC(c3ccc(Br)cc3)=NN2C(=O)CN2CCCC2)cc1 (configuration not stated)	-2	15	i	nt	0	-1	-18	-13
c1ccc(Cc2nnc3sc(-c4ccco4)nn23)cc1	-171	-6	i	-19	1	5	15	53	eIF4H FP inh retest=47;PABP polyA inh retest=32
O=C(CN1C(=O)COc2ccccc21)NCCN1CCCC1	-12	-2	i	-1	-2	4	6	4
O=C(N/N=C/c1ccc(OC(=O)c2ccccc2)cc1)c1ccc(CN2CCOCC2)cc1	-52	-1	nt	-8	0	3	4	14
Cc1cccc(C)c1-n1c(C)nn(CCOc2ccccc2)c1=O	-8	4	i	2	-1	-4	-4	-4
O=C(CN1CCC(C(O)(c2ccccc2)c2ccccc2)CC1)Nc1ccccc1	nt	15	nt	-3	8	-3	-1	0
CC1(C(=O)NS(=O)(=O)c2cccc(F)c2)CCN1C(=O)c1ccccc1 (configuration not stated)	2	nt	nt	-15	-1	1	nt	nt
CCC(CC)c1nc(C#N)c(NC(C)c2ccccc2)o1 (configuration not stated)	16	14	i	nt	nt	nt	-3	-10
CCCCOC(=O)Nc1nnc(-c2ccccc2OC)s1	nt	-10	i	-19	6	3	1	-1
Cc1ccc(Cl)cc1NC(=O)CCC(=O)O	5	1	i	nt	-2	4	9	0
COc1ccc2nc(NC(=O)C3CCCO3)sc2c1 (configuration not stated)	-32	-7	i	nt	3	6	10	0
Cc1cccc(-n2ncc3c2CCCC3NC(=O)c2ccc[n+]([O-])c2)c1C (configuration not stated)	-4	-3	i	nt	1	-16	2	2
Cc1c(NS(=O)(=O)c2cc(C(=O)NCc3cccnc3)ccc2Cl)c(=O)n(-c2ccccc2)n1C	nt	-14	nt	-5	1	1	nt	nt
O=C(NCc1ccco1)c1cc2cc(Br)ccc2o1	-5	-5	i	9	-2	2	10	-7
CCCc1ccc2oc(C(=O)N3CCC(C(N)=O)(N4CCCCC4)CC3)c(C)c2c1	7	-1	i	-11	2	-2	-6	-14
CC(C)CN(C(=O)COC(=O)c1ccccn1)c1c(N)n(Cc2ccccc2)c(=O)[nH]c1=O	0	-1	i	3	2	5	nt	nt
CC(C(=O)N1CCOCC1)(c1ccccc1)c1ccccc1	nt	-8	i	-18	-1	3	-4	-13
CC12CCC(=O)N1C(C(=O)NCCc1ccccc1)CS2 (configuration not stated)	8	-14	i	-12	1	5	4	2
O=C(NC1CCc2ccccc21)c1cc(COc2c(F)cccc2F)on1 (configuration not stated)	-8	11	i	-3	2	4	0	-3
COc1ccc2oc(C(=O)OCC(=O)NC(=O)c3ccccc3)c(C)c2c1	-14	-7	i	-27	-1	0	-11	0
